From PubChem BioAssay
Sa ugtP lethal – kills S. aureus RN4220 lacking UgtP; S. aureus RN4220 ugtP deletion, OD600 growth, 16 h; some inactives read as strong as hits; growth inhibition, % (concentration not given with the values); 330,000 tested, 0.54% active; AID 1259309;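 active means z-score under -3 and OD600 up to 0.15 on both plates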;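 further: plate controls were untreated wells for no effect and antibiotic for full effect; wells of about 80 µL received 100 nL stock; the first replicate is given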
Mtb hypoxia inh – Mtb hypoxia fluorescent reporter inhibition; 300,000 tested, 0.1% active; M. tuberculosis hypoxia-regulated fluorescent reporter, fluorescence; AID 1159583; fluorescence inhibition, % (concentration not given with the values);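 active means 35 to 45% if threefold the growth effect, above 45% if 1.5-fold the growth effect; inactive means the rest, general growth blockers included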;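 further: wells of about 50 µL received 100 nL stock; 0% = vehicle wells and 100% = reference inhibitor wells; whole bacteria with a GFP reporter of the hypoxia response; strong numbers were not always called active; many hits fall short of the cut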
BJeLR lethal – kills HRASV12-expressing BJeLR cells | BJeLR (HRASV12) viability, CellTiter-Glo ATP luminescence, 48 h; reference of the scale not given here | inhibition, % (no concentration beside the values) | 300,000 tested, 0.17% active | AID 1554;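 active means replicate mean above 50%; inconclusive means above 50% but judged a plate artefact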;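 further: 50 nL library stock added to about 25 µL; numbers are from one replicate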
Sa RN4220 lethal – kills Staphylococcus aureus RN4220. S. aureus RN4220 growth, OD600, 16 h. inhibition, % (test concentration not listed). 330,000 tested, 0.33% active. AID 1259311;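 active means z-score of -3 or lower and OD600 up to 0.18 on both plates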;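 further: plate controls were untreated cells for no effect and reference antibiotic for full effect; stock transfer was 100 nL into about 80 µL; one replicate is shown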
Autofluor counter – compound fluorescence in toxin protease inhibitor counterscreen. compound autofluorescence counterscreen, microsphere flow cytometry; stronger effect = higher value. fluorescence intensity (no concentration beside the values). 360,000 tested, 3.1% active;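 active means at least 3 SD above the mean of all compounds, about 16000 in these data; inconclusive means too few beads counted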;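 further: 100 nL of 1 mM stock went into each well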
PrP 5UTR inh – suppresses PrP 5' UTR mRNA reporter expression. cell-based PrP 5' UTR mRNA reporter, plate reader. inhibition, % (concentration not given with the values). 340,000 tested, 0.35% active. AID 488862;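 active means every replicate at 50% or more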;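 further: 0 = median of the neutral control wells; tested in H4 reporter cells; numbers are from one replicate; inactives centre near -14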
Mtb hypoxia inh growth – also measured in Mtb hypoxia inh; calls as there; growth inhibition, %; measured here: M. tuberculosis growth (absorbance);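 0% = vehicle and 100% = reference antibiotic; read after six days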
* marks the source's active call; other numbers are inactive results; u = inconclusive; x = no result given.

Each structure is followed by: BJeLR lethal	Mtb hypoxia inh	Sa ugtP lethal	PrP 5UTR inh	Autofluor counter	Sa RN4220 lethal	Mtb hypoxia inh growth
> Cc1cccc(CN2CCN(Cc3cccc4nonc34)CC2CCO)n1 (stereo not drawn)
  9	-5	-5	-22	2790	1.9	-10
> O=C(CCC(=O)Nc1ccccc1)NN=Cc1ccc2c(c1)OCO2
  x	0	4	x	x	0.3	4
> CN(C)C(=O)c1ccc(NC(=O)COc2cccc(Oc3ccccc3)c2)cc1
  7	4	0	-29	5140	-0.4	-5
> CCCN(C(=O)COC(=O)COc1c(C)cccc1C)c1c(N)n(Cc2ccccc2)c(=O)[nH]c1=O
  1	9	7	-18	6191	1.8	-3
> CN(C(=O)c1ccc(F)cc1)c1ccccc1C(=O)NCc1ccccc1
  -5	3	-1	-9	6164	-1.4	12
> CCOc1ccccc1NC=C1C(=O)OC2(CCCCC2)OC1=O
  -3	14	3	-17	8248	1.4	7
> Cc1cc(C)n(S(=O)(=O)c2ccc(C)c(C)c2)n1
  1	3	0	-9	4445	0.3	7
> COC(=O)COc1cccc(NC(=O)C(c2ccccc2)c2ccccc2)c1
  -6	-4	12	-3	3783	0.3	1
> COCCNC(=O)CSc1nc2sc(C)c(C)c2c(=O)n1-c1ccccc1
  -4	11	3	x	x	3.5	-4
> O=C(CSc1ccc(-c2ccccn2)nn1)NCc1ccc(Cl)cc1
  -6	11	4	-16	3457	3.0	0

Each structure is followed by: BJeLR lethal	Mtb hypoxia inh	Sa ugtP lethal	PrP 5UTR inh	Autofluor counter	Sa RN4220 lethal	Mtb hypoxia inh growth
> O=C(COC(=O)c1cccs1)Nc1ccc(Cl)cn1
  x	0	10	0	5608	6.4	1
> O=C(c1ccncc1)N1CCN(C2CCC(c3ccccc3)CC2)CC1 (stereo not drawn)
  1	8	14	-10	3256	3.7	-1
> CC1Cn2c(nnc2-c2ccccc2O)S1 (stereo not drawn)
  -7	x	12	-10	4516	5.3	x
> COc1n[nH]c(C(=O)Nc2cc(F)ccc2C)c1[N+](=O)[O-]
  15	9	16	-28	7839	40	6
> CCOC(=O)c1cccnc1SC(CC)C(=O)NCc1ccco1 (stereo not drawn)
  -11	6	4	-18	24254*	4.5	2
> CCOc1cc(C(=O)NCCC(=O)N2CCC3(CC2)NCCc2[nH]cnc23)cc(OCC)c1OCC
  -2	7	2	-17	5426	0.0	6
> O=c1[nH]c2c(Br)cnc([N+](=O)[O-])c2[nH]1
  6	-22	6	-13	5375	7.8	3
> CCCOc1ccccc1C(=O)N(Cc1cccs1)C1CCS(=O)(=O)C1 (stereo not drawn)
  -5	x	12	-11	3668	1.2	x
> CCCCNc1nc2c(c(=O)n(C)c(=O)n2C)n1Cc1cccc(OC)c1
  0	16	-3	-37	4560	7.8	4
> O=C(NN=Cc1ccco1)c1cc(=O)[nH]c2ccccc12
  x	7	-1	x	x	5.9	3

Each structure is followed by: BJeLR lethal	Mtb hypoxia inh	Sa ugtP lethal	PrP 5UTR inh	Autofluor counter	Sa RN4220 lethal	Mtb hypoxia inh growth
> CC(=O)c1cccc(NC(=O)c2ccc3c(c2)C(=O)N(Cc2cccnc2)C3=O)c1
  -1	-4	9	-19	4950	3.1	-5
> CCN(C(=O)COC(=O)CCNS(=O)(=O)c1ccccc1F)c1c(N)n(Cc2ccccc2)c(=O)[nH]c1=O
  x	2	4	-15	x	-0.5	1
> CCC(NC(=O)CCl)c1ccc(C)cc1 (stereo not drawn)
  -3	x	0	-12	4274	2.1	x
> Cc1nc(SC2CC(=O)N(c3ccc([N+](=O)[O-])cc3)C2=O)nc2c1CCCC2 (stereo not drawn)
  6	x	1	-12	4430	3.5	x
> CC(=O)C1=C(O)C(=O)N(Cc2ccco2)C1c1cccc(F)c1 (stereo not drawn)
  14	-10	2	-10	3917	1.6	-1
> CCC(=Nc1cccc(C(F)(F)F)c1)c1c(O)n(C)c(=O)n(C)c1=O
  -2	3	16	-22	3868	2.2	7
> O=c1c(Cc2ccc(F)cc2)c(O)ccn1C1CCCCC1
  -3	5	2	-4	2488	0.4	8
> O=C(CCN1C(=O)c2ccccc2C1=O)Nc1ccccc1C(=O)N1CCOCC1
  -5	4	-2	-15	2872	-6.8	2
> O=C(Nc1ccc2c(c1)OCO2)C1CCCN1S(=O)(=O)c1cccc2cccnc12 (stereo not drawn)
  x	2	1	x	x	2.9	9
> COC(=O)CC1=Nc2ccccc2NC(=O)C1
  2	7	3	-25	4704	4.0	3

Each structure is followed by: BJeLR lethal	Mtb hypoxia inh	Sa ugtP lethal	PrP 5UTR inh	Autofluor counter	Sa RN4220 lethal	Mtb hypoxia inh growth
> CN(C[C@@H](Cc1cccc2ccccc12)N(C[C@H](Cc1ccccc1)N(CCc1ccccc1)N=O)N=O)N=O
  2	x	x	6	2854	x	x
> S=C(NCCSCc1c(Cl)cccc1Cl)Nc1ccccc1
  x	x	0	-32	u	22	x
> COC(=O)Cc1ccc(NC(=S)Nc2cccc(C)n2)cc1
  21	18	-5	-23	6190	16	7
> O=C(NCC1CCCO1)c1ccc(Cl)c(F)c1F (stereo not drawn)
  7	x	8	-12	3649	4.8	x
> Cc1ccc(OCC(=O)Nc2ccc(-n3cnnn3)cc2)c(C)c1
  x	0	1	-16	u	4.0	-1
> O=C(NCc1cccc(F)c1)c1cccc2c1C(=O)c1ccc(Cl)cc1S2(=O)=O
  x	18	4	-13	3862	8.1	10
> COc1ccc(-c2cc(C(F)F)n3ncc(C(=O)N4CCc5ccccc54)c3n2)cc1
  12	-10	-10	-20	2616	1.6	5
> Cc1ccc(NC(=O)CNC(=O)c2ccc(Oc3ccccc3)cc2)nc1
  -4	7	2	-29	4993	-2.6	8
> COc1cc(CNc2ccc3[nH]c(=O)[nH]c3c2)ccc1OCc1ccc(Cl)cc1
  2	5	2	-65	3789	3.7	7
> Cc1cc(NC(=O)CSc2nnc(-c3ccncc3)n2-c2ccccc2)no1
  -1	12	9	-8	4530	7.2	1

Each structure is followed by: BJeLR lethal	Mtb hypoxia inh	Sa ugtP lethal	PrP 5UTR inh	Autofluor counter	Sa RN4220 lethal	Mtb hypoxia inh growth
> Cc1ccccc1NS(=O)(=O)c1cc(C(=O)NCCSC2CCCCC2)ccc1C
  -6	3	-23	-15	14819	19	-1
> O=C(CN1CCN(c2ccc(F)cc2)CC1)c1ccc(O)cc1O
  -1	1	4	-18	4586	0.3	-1
> O=C(CCN1C(=O)/C(=C\c2ccccc2)SC1=S)Nc1ccc(C(=O)O)cc1
  1	7	-6	-13	5041	2.2	-3
> COc1ccc(C(=O)n2nc(C)cc2Nc2ccccc2)cc1
  2	7	35	-44	u	4.2	7
> COc1cc(/C=N/N2CCN(C3c4ccccc4-c4ccccc43)CC2)ccc1O
  6	x	x	9	2738	x	x
> O=C(CCCCn1ccc(=O)[nH]c1=O)Nc1ccc(C(=O)O)c(O)c1
  x	25	2	-8	3417	0.2	37
> Cn1c(=O)n(C)c2cc(C=Nn3cnnc3)ccc21
  x	5	2	x	x	1.4	3
> COc1ccccc1CCN1CCCC(CN(C)CC(C)(C)CO)C1 (stereo not drawn)
  -2	5	8	-75	3896	3.1	5
> CCCCCCCOc1ccc(C2(C)NC(=O)NC2=O)cc1 (stereo not drawn)
  -6	12	12	-14	3282	3.0	15
> COCCN1CCN(Cc2cn(C)nc2-c2ccc(Oc3ccccc3)cc2)CC1
  -6	9	3	-1	5835	4.3	6

Each structure is followed by: BJeLR lethal	Mtb hypoxia inh	Sa ugtP lethal	PrP 5UTR inh	Autofluor counter	Sa RN4220 lethal	Mtb hypoxia inh growth
> CC(=NNc1ccc([N+](=O)[O-])cc1)c1ccco1
  x	-2	-9	x	x	8.6	0
> CCCCn1c(N)c(N2CCOCC2)c(=O)n(CC(=O)NCCc2ccccc2)c1=O
  3	-7	-1	-5	4469	3.7	4
> COc1ccc(Oc2ccccc2/C=C/C(=O)O)cc1
  -6	1	2	-4	9261	1.3	-2
> O=C(c1ccc(CNc2c(N3CCCC3)c(=O)c2=O)cc1)N1CCc2ccccc2C1
  10	x	4	-26	5192	2.5	x
> CC(C)COP(=O)(OCC(C)C)C(Nc1ccccc1)c1ccc(F)cc1 (stereo not drawn)
  13	11	-8	-35	2328	-1.5	4
> CC(CC(=O)Nc1ccccn1)=NNC(=O)c1cccc(C)c1
  x	15	6	x	x	4.1	9
> NC(=O)COC(=O)c1ccc2c(c1)C(=O)N(Cc1ccco1)C2=O
  -8	4	5	-24	3579	1.2	6
> CCCN(CCc1ccccc1)C1CCc2c(O)cccc2C1 (stereo not drawn)
  13	-3	-10	-5	6194	0.7	12
> CCN(Cc1ccccc1)C1CCN(Cc2ccc(SC)cc2)CC1
  7	7	3	-3	4639	8.9	11
> CC(=O)c1sc(NC(=O)CCCOc2ccc(Cl)cc2)nc1C
  x	1	3	-21	4426	3.8	1

Each structure is followed by: BJeLR lethal	Mtb hypoxia inh	Sa ugtP lethal	PrP 5UTR inh	Autofluor counter	Sa RN4220 lethal	Mtb hypoxia inh growth
> Cc1ccc(NC(=S)NC(=O)/C=C/c2ccc(Cl)cc2)cc1
  -7	2	-7	-20	2423	-2.0	2
> Cc1ccc(-c2csc3ncn(N=CN(C)C)c(=O)c23)o1
  x	1	-7	x	x	-7.3	10
> O=C(COc1ccccc1[N+](=O)[O-])Nc1cccc(C(=O)Nc2ccccc2C(=O)O)c1
  3	4	0	-32	5966	1.2	-2
> COc1ccc(C(=O)OCC(=O)Nc2nc3c(F)c(F)c(F)cc3s2)cc1OC
  0	7	2	-19	3878	-0.4	2
> Cc1ccc(-c2nn(Cc3ccccc3)cc2C=CC(=O)O)cc1
  x	9	5	x	x	6.9	10
> COc1ccc(NC(=O)Nc2ccc(OCC(=O)N3CCOCC3)cc2)cc1OC
  3	9	-2	-13	5397	0.9	2
> Cc1ccc2[nH]c(=O)c(CN(CC3COCCO3)C(=O)Nc3ccccc3C)cc2c1 (stereo not drawn)
  -5	-12	7	-7	3248	0.1	-1
> Cc1ccc(NC(=O)c2sc(N)nc2-c2ccc([N+](=O)[O-])cc2)c(C)c1
  5	11	10	-14	5295	4.0	1
> CC1Oc2ccccc2N(Cc2ccccc2F)C1=O (stereo not drawn)
  -1	2	3	x	x	0.0	-7
> COC(=O)c1cc(C(=O)Nc2nnc(C3CC3)s2)cc([N+](=O)[O-])c1
  2	6	2	-8	2104	25	1

Each structure is followed by: BJeLR lethal	Mtb hypoxia inh	Sa ugtP lethal	PrP 5UTR inh	Autofluor counter	Sa RN4220 lethal	Mtb hypoxia inh growth
> Cc1nc(CC(=O)NNS(=O)(=O)c2ccc(F)c(Cl)c2)cs1
  -15	6	3	-17	2628	3.9	5
> NC(=O)CC(NC(=O)Cc1cccc2ccccc12)c1ccc(NCc2ccccn2)c([N+](=O)[O-])c1 (stereo not drawn)
  -7	11	-2	-4	3772	2.5	10
> CNS(=O)(=O)c1ccc(N=Cc2c(O)n(-c3ccc(C)cc3)c(=O)[nH]c2=O)cc1
  0	-10	-5	-11	3687	1.5	-4
> COc1cc(O)oc1C=Nc1ccc(C(=O)O)cc1
  41	-3	2	-12	2541	5.7	0
> Cn1c(NC(=O)c2ccc(F)cc2)nc2ccccc21
  2	6	-10	-65	3090	5.5	11
> COc1ccccc1OCCNC(=O)C(c1ccccc1)c1ccccc1
  2	15	17	-33	4569	1.2	2
> CCOC(=O)CC(=O)CSc1nc(N)c(C#N)c(-c2ccc(F)cc2)c1C#N
  -4	6	6	-25	11282	0.5	5
> Cn1ncc2c(N3CCC(Cc4ccccc4)CC3)ncnc21
  7	4	10	-18	2679	1.3	11
> O=C(NC1(C(F)(F)F)N=C(c2ccccc2)NC1=O)c1ccccc1 (stereo not drawn)
  -7	0	1	-23	1918	4.3	4
> COc1ccccc1N1CCN(S(=O)(=O)c2cc(Br)cnc2N)CC1
  3	-2	3	7	4349	3.1	-3

Each structure is followed by: BJeLR lethal	Mtb hypoxia inh	Sa ugtP lethal	PrP 5UTR inh	Autofluor counter	Sa RN4220 lethal	Mtb hypoxia inh growth
> Cc1ccc(NC(=O)Cn2nc([N+](=O)[O-])c(Br)c2C)cc1C
  4	10	-7	-24	7696	-0.8	7
> O=[N+]([O-])c1cccc(-c2nc(-c3ccncc3)no2)c1
  1	x	-2	-20	4780	0.7	x
> O=C(NN=Cc1c(F)c(F)c(F)c(F)c1F)c1cc(-c2ccccc2)nc2ccccc12
  x	-10	-4	x	x	5.3	7
> CN(C)CCNC(=O)COc1cccc(Cl)c1
  7	x	-9	-11	2939	-0.4	x
